Assay outcomes (PubChem BioAssay)
GALR2 agonist: agonists of human galanin receptor 2 (GALR2); O43603; GALR2-expressing cells, agonist activation read-out; activation, %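 (tested at 5 µM)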; 0.48% of 140,000 active;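 active = above mean plus 3 SD of all compounds, about 5% in these data, not always enough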;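 note: 0% = vehicle buffer wells and 100% = reference agonist at full effect; tested in CHO reporter cells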
Target sequence (O43603 whole entry, looked up): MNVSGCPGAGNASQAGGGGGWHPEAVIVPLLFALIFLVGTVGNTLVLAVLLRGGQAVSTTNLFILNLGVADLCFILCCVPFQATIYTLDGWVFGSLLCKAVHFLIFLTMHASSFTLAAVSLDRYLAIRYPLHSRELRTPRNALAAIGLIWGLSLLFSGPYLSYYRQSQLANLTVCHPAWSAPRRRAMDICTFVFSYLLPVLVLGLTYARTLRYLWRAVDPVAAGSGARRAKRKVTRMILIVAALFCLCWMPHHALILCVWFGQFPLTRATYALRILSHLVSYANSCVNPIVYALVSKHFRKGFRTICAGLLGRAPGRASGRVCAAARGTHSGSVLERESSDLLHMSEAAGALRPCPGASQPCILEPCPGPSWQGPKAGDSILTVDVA
RGS16-Gao HTS: modulates binding between human RGS16 and Galphao; bead-based flow cytometry RGS16-Galphao binding, fluorescence; actives lie on both sides; binding response (% of control), % at 10 µM; 0.38% of 220,000 active; AID 1441; O15492+P09471;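 active = below 25% or above 175%, edge rows of some plates excepted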;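 note: Galphao activated by GDP with aluminum fluoride before binding; 100% = wells without compound and 0% = beads without RGS; some results beyond the cut were filed as inactive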
Target sequence (O15492 whole entry, looked up): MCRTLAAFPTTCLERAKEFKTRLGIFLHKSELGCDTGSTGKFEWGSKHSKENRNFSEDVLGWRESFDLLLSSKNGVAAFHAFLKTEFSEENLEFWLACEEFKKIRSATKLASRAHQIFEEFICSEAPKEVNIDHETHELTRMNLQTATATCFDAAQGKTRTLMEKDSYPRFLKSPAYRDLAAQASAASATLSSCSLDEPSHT
Target sequence (P09471 whole entry, looked up): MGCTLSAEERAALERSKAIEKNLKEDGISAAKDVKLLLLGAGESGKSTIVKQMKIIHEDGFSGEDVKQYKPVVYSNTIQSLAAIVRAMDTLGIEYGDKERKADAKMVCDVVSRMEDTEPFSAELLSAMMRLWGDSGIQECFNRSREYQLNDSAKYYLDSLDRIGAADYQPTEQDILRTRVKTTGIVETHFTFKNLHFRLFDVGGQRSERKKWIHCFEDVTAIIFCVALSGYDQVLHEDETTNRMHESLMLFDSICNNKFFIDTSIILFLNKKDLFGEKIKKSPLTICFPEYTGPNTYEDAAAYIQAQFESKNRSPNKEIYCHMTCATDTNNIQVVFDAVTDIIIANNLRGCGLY
HSV replic up: increases HSV replication in cells | HSV replication augmentation in cells, fold increase | maximum fold increase | 0.005% of 220,000 active | AID 1956;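 active = peak rise of 1.5-fold or more in the series; tested in PC3 cells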;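 note: first round at 10 µM; read as green reporter fluorescence; hits show the peak of a series up to 25 µM; 1 = signal of infected wells without compound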
INS promoter inh: TRM-6 insulin promoter activity inhibition. TRM-6 cells (human fetal islet line), insulin promoter-eGFP reporter, imaging; reporter expression induced with tamoxifen. inhibition, % at 2 µM. 0.9% of 130,000 active. AID 1273;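 active = inhibition above the mean plus 3 SD, with well images judged a real hit on visual review, cut at about 60% in these data, passing the limit was not always enough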
PKD1 inh: blocks activity of human protein kinase D1; PKD1 kinase fluorescence polarization assay; 0.056% of 200,000 active; AID 797; inhibition, %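 (about 10 µM by stock and volumes)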;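 active = inhibition of 50% or more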;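 note: controls were vehicle for no effect and a reference inhibitor for full effect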
INS promoter inh cell count: further read-out of INS promoter inh, marked with its call; normalized cell count, %; measured here: cell count, toxicity; reference of the scale not given here;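 cells exposed to compound for 48 h; stained nuclei by imaging scaled within each plate; lower means fewer cells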
HSV replic up primary fold: also measured in HSV replic up; calls as there; fold increase; compound at 10 µM; measured here: primary screen fold increase 10 uM; tested in PC3 cells;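 GFP signal in the first replicate; 1 = infected wells without compound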
Starred values were filed as active, the others as inactive; i = inactive; / = not tested or not shown.

SMILES | GALR2 agonist | RGS16-Gao HTS | HSV replic up | HSV replic up primary fold | INS promoter inh | INS promoter inh cell count | PKD1 inh
CCCOc1ccc2c(C)c(CC(=O)OC)c(=O)oc2c1 | -1.2 | 96.9 | i | 0.88 | -117.1 | 39.0 | 0.3
O=C(CCCc1nc(-c2ccccc2)no1)N1CCOCC1 | -1.4 | 71.3 | i | 0.88 | -15.2 | 136.9 | 2.6
Cc1ccccc1-c1n[nH]c(=S)n1/N=C/c1ccc(-c2ccccc2Br)o1 | / | 93.7 | i | 0.93 | / | / | -5.4
O=C(N/N=C/c1ccccc1OC(=O)c1ccc2c(c1)OCO2)c1cccc(F)c1 | -0.9 | 102.1 | i | 0.98 | 0.0 | 103.4 | -6.2
CCN1N=C(c2cc(Cl)sc2Cl)CSC1=O | -2.0 | 87.0 | i | 0.84 | 62.5 | 162.9 | -7.4
CCOc1ccc(C(=O)NC(C(=O)NCc2ccccc2OC)C(C)C)cc1 (centres undefined) | / | 101.4 | i | 1.08 | / | / | -2.3
CCOc1ccc(/C=C2\NC(=S)NC2=O)cc1 | / | 102.8 | i | 1.14 | / | / | /
CCC[N+](C)(C)C(C)C(OC(C)=O)c1ccccc1 (centres undefined) | / | 98.8 | i | 0.95 | / | / | /
N=C1/C(=C/c2cccn2Cc2ccc(Cl)cc2)C(=O)N=C2SC=CN12 | -0.6 | 100.5 | i | 0.87 | -56.7 | 92.0 | 8.9
C=CCNC(=O)c1ccc(C2SCC(=O)N2Cc2ccccc2)cc1 (centres undefined) | / | 104.7 | i | 1.07 | / | / | -5.0
O=C(NCc1ccc2c(c1)OCO2)c1ccc(Cl)s1 | / | 103.3 | i | 0.84 | / | / | -6.5
Cc1ccccc1N(C(=O)Cc1cccs1)C(C(=O)NCC1CCCO1)c1cccnc1 (centres undefined) | -0.1 | 105.8 | i | 0.88 | / | / | -0.1

Structures shown so far that have four or more nitrogen atoms, in the order listed:
SMILES | GALR2 agonist | RGS16-Gao HTS | HSV replic up | HSV replic up primary fold | INS promoter inh | INS promoter inh cell count | PKD1 inh
Cc1ccccc1-c1n[nH]c(=S)n1/N=C/c1ccc(-c2ccccc2Br)o1 | / | 93.7 | i | 0.93 | / | / | -5.4
N=C1/C(=C/c2cccn2Cc2ccc(Cl)cc2)C(=O)N=C2SC=CN12 | -0.6 | 100.5 | i | 0.87 | -56.7 | 92.0 | 8.9

Next part.
SMILES | GALR2 agonist | RGS16-Gao HTS | HSV replic up | HSV replic up primary fold | INS promoter inh | INS promoter inh cell count | PKD1 inh
O=C(Cc1c(F)cccc1Cl)N1CCCC1 | -1.1 | 99.2 | i | 1 | i | 81.7 | 5.4
CC1CCCCN1C(=O)C12CCC(C)(/C(=N/O)C1)C2(C)C (centres undefined) | 1.0 | 107.0 | i | 1.03 | 15.4 | 57.5 | -1.9
CN1C[N+]([O-])=C(c2ccccc2)C1(C)C | -1.7 | 105.0 | i | 0.81 | 18.2 | 80.8 | 4.0
CCOc1ccc(N2C(=O)CNC2=S)cc1 | / | 97.0 | i | 1.01 | / | / | 0.0
Cc1cc(Nc2ccc([N+](=O)[O-])cc2)nc2ccccc12 | / | 30.3 | i | 0.8 | / | / | -0.7
COc1ccc2c(c1)c(C(=O)N/N=C/c1ccc(OC)c(OC)c1)c(C)n2C | 0.1 | 100.0 | i | 1.15 | -2.0 | 86.7 | 6.2
CCC(C)(C)C1CCC(=NNC(=S)Nc2ccccc2)CC1 (centres undefined) | / | 114.9 | i | 1.11 | / | / | -2.2
CCOC(=O)c1cnn(-c2nc(-c3ccccc3)nc3c2COC(C)(C)C3)c1N | 0.2 | 95.9 | i | 0.79 | / | / | 0.7
CCOC(=O)N1CCC(NC(=O)c2cc(C(=O)Nc3ccc(OCC)cc3)ccc2CO)CC1 | -0.5 | 101.7 | i | 0.89 | / | / | -11.6
CC(=O)OCCN(CCOC(C)=O)c1c(C)[nH]c(=O)[nH]c1=O | -0.4 | 109.1 | i | 0.82 | / | / | -13.3
COC(=O)CSc1nnc(-c2ccc(S(=O)(=O)NCc3ccccc3Cl)cc2)o1 | 0.0 | 37.7 | i | 0.72 | -17.9 | 78.3 | 19.8
COc1cccc(-c2[nH]nc3c2C(c2ccoc2)C(C#N)=C(N)O3)c1 (centres undefined) | -2.4 | 96.0 | i | 0.74 | -100.0 | 95.0 | -6.0
CCCc1ncc(C(O)(c2ccccc2)c2ccccc2)n1C | / | 100.3 | i | 0.99 | / | / | -5.7
COCC(=O)NCc1nc2ccccc2[nH]1 | -0.8 | 110.0 | i | 0.85 | / | / | -11.1
CCCOC(=O)Nc1cccc(C(C)=O)c1 | -1.6 | 115.5 | i | 0.73 | -305.6 | 66.3 | -9.9
COc1cc(OC)cc(C(=O)O/N=C(\N)c2ccncc2)c1 | 0.0 | 90.0 | i | 1.11 | 31.0 | 135.8 | -2.3
CCOc1cc(/C=N/NC(=O)C(=O)N2CCCC2)ccc1O | / | 109.3 | i | 1.05 | / | / | -3.7
Cc1cccc(C(=O)NNC(=O)c2ccccc2C)c1 | / | 99.8 | i | 0.95 | -40.0 | 128.7 | 3.7
O=C(NC1=NCCS1)c1ccc(Cl)c(S(=O)(=O)N2CCCCCC2)c1 | / | 100.8 | i | 0.93 | / | / | -5.3
CC1(C)Cc2nc3sc4c(SCC(=O)NCc5ccccc5)ncnc4c3cc2CO1 | 0.7 | 93.2 | i | 0.59 | -48.3 | 49.3 | 8.1
COc1ccc(-c2noc(CCC(=O)NCCc3cccc(C)c3)n2)cc1 | / | 101.2 | i | 1 | / | / | -5.6
CC(/C=C/c1ccccc1)=N\NC(=O)Cn1nc(C)cc1C | -1.5 | 59.5 | i | 0.88 | 44.6 | 74.3 | 0.1
CCOCCOCCC(C(=O)O)P(=O)(c1ccccc1)c1ccccc1 (centres undefined) | -2.5 | 87.8 | i | 0.97 | 50.0 | 108.2 | -6.0
FC(F)(F)c1ccccc1NC(=S)Nc1cccc2cnccc12 | / | 99.8 | i | 0.7 | 40.0 | 108.5 | -1.6

Full records, quoted from the list. Screens in order: GALR2 agonist | RGS16-Gao HTS | HSV replic up | HSV replic up primary fold | INS promoter inh | INS promoter inh cell count | PKD1 inh
`COc1ccc2c(c1)c(C(=O)N/N=C/c1ccc(OC)c(OC)c1)c(C)n2C` is listed as 0.1 | 100.0 | i | 1.15 | -2.0 | 86.7 | 6.2
`O=C(CCCc1nc(-c2ccccc2)no1)N1CCOCC1` is listed as -1.4 | 71.3 | i | 0.88 | -15.2 | 136.9 | 2.6
`CCOc1ccc(N2C(=O)CNC2=S)cc1` is listed as / | 97.0 | i | 1.01 | / | / | 0.0
`Cc1ccccc1-c1n[nH]c(=S)n1/N=C/c1ccc(-c2ccccc2Br)o1` is listed as / | 93.7 | i | 0.93 | / | / | -5.4

Continuation.
SMILES | GALR2 agonist | RGS16-Gao HTS | HSV replic up | HSV replic up primary fold | INS promoter inh | INS promoter inh cell count | PKD1 inh
CCNC(=S)Nc1ccc(C)c(Cl)c1 | -1.0 | 86.2 | i | 0.97 | -11.8 | 126.0 | 1.3
O=C(Cc1c(O)c2ccccc2[nH]c1=O)NCc1cccc(F)c1 | -0.6 | 95.7 | i | 0.92 | -17.4 | 93.9 | -5.9
O=C(Nc1ccc(Cl)cc1)NN1CC(=O)N(c2cccc(C(F)(F)F)c2)CC1=O | / | 90.6 | i | 0.88 | / | / | /
COCCNC(=O)c1onc(CSc2ccccc2F)c1C(=O)O | 0.3 | 98.1 | i | 0.92 | / | / | 1.1
Cc1nc([N+](=O)[O-])c(N2CCOCC2)n1Cc1ccccc1 | / | 101.5 | i | 0.99 | / | / | /
O=[N+]([O-])c1cc(Br)c(O)c(/C=N/Nc2nnnn2-c2cccc3ccccc23)c1 | -1.7 | 98.4 | i | 1.06 | 15.9 | 110.6 | -6.2
COCCCNC(=S)N1CCN(C(=O)c2ccco2)CC1 | 0.9 | 102.9 | i | 1.26 | / | / | -8.8
COc1ccc(-n2cnnc2SCC(=O)Nc2cc(C(C)(C)C)nn2-c2ccccc2)cc1 | -2.5 | 108.4 | i | 0.98 | 8.7 | 109.6 | -3.8
C/C(Cn1cnc([N+](=O)[O-])n1)=N\NC(=O)c1ccccc1 | -1.2 | 94.3 | i | 1.06 | 17.6 | 131.6 | -9.4
CCCN(CCC)C(=O)CC(c1ccccc1)c1ccc(C)cc1O (centres undefined) | -2.1 | 108.9 | i | 0.92 | -31.2 | 92.2 | -3.2
NC(=O)CC(NC(=O)c1ccccc1)c1ccc(NC2CCC2)c([N+](=O)[O-])c1 (centres undefined) | / | 101.5 | i | 0.965 | / | / | /
Cc1[nH]nc2ncc(C(=O)c3cc(F)ccc3O)cc12 | 1.4 | 103.3 | i | 0.99 | 38.5 | 89.0 | 11.7
CCOc1ccccc1OCC(=O)OCC(=O)Nc1ncc(Cl)cc1Cl | -0.6 | 97.7 | i | 0.95 | / | / | -9.6
O=C(CN1CCC(C(=O)O)CC1)Nc1ccccc1Oc1ccccc1 | / | 102.4 | i | 0.92 | / | / | /
CSc1nc2nc3c(cc2c(=O)n1-c1ccccc1)COC(C)(C)C3 | / | 108.5 | i | 0.71 | / | / | -3.5
CCOc1ccc(-n2nnnc2SCC(=O)N2CCOCC2)cc1 | 0.1 | 113.2 | i | 1.02 | -262.2 | 94.2 | 9.2
Cc1ccc(C(=O)/C=C/c2ccc3c(c2)OCCO3)c(O)c1 | / | 104.8 | i | 0.93 | / | / | /
COc1ccc(OC)c(NC(=O)C(=O)NNC(=O)C23CC4CC(CC(C4)C2)C3)c1 | / | 111.3 | i | 0.91 | / | / | /
COC(=O)c1cc(NS(=O)(=O)c2ccc(C)c3ccccc23)ccc1N1CCOCC1 | / | 104.1 | i | 1.04 | / | / | /
COc1cccc(CC2(CO)CCCN(Cc3ccccc3-c3ccco3)C2)c1 (centres undefined) | / | 105.8 | i | 0.97 | / | / | 3.5
Fc1ccc(-n2cnnn2)c(F)c1 | -0.1 | 99.8 | i | 0.94 | / | / | 9.2
Cc1ccc(-c2ccc(=O)n(CC(=O)Nc3ccc4c(c3)OCCO4)n2)cc1 | / | 65.1 | i | 0.97 | / | / | 1.6
CS(=O)(=O)N(Cc1ccc(C(=O)NC2CCCCC2O)cc1)c1ccccc1 (centres undefined) | -1.8 | 97.0 | i | 0.97 | -21.2 | 87.6 | 0.5
Cc1ccc(S(=O)(=O)N2CCN(CCC#N)CC2)cc1 | / | 100.2 | i | 0.97 | 27.8 | 55.9 | -0.9
Oc1ccc(NCc2cccc(OCc3ccccc3)c2)cc1 | / | 91.8 | i | 0.89 | / | / | 1.1
O=C1NC2(CCCCC2)C(=O)N1/N=C/c1ccccc1Br | / | 103.3 | / | / | 57.1 | 80.4 | 11.5
C=CCNC(=O)c1onc(CSc2ccccc2)c1C(=O)O | -3.2 | 101.8 | i | 0.78 | 13.5 | 113.0 | -8.1
Cc1ccc(CCNC(=O)CCNS(=O)(=O)c2ccc3c(c2)oc(=O)n3C)cc1 | -1.9 | 101.5 | i | 1.06 | / | / | -0.4
COc1ccc(-c2cc(=O)oc(-c3cccc(C)c3)n2)cc1 | / | 104.2 | i | 1.1 | / | / | /
c1ccc(Cn2c(-c3cncs3)nc3ccccc32)cc1 | -2.2 | 103.1 | i | 1.01 | -37.5 | 57.5 | -2.7
CCN(CC)C(=O)N1CCC(NC(=O)Cc2ccccc2)CC1 | -1.9 | 74.8 | i | 0.89 | 0.0 | 107.1 | 0.4
Cc1cc(C)n(CC(O)Cn2cnc3c2c(=O)n(C)c(=O)n3C)n1 (centres undefined) | -0.1 | 99.5 | i | 1.12 | -36.8 | 182.8 | -6.6
CCN(CC)CCN1C(=O)C(=O)/C(=C(/O)c2ccc(F)cc2)C1c1cccnc1 (centres undefined) | -1.0 | 102.6 | i | 1.02 | / | / | -11.1
Cc1ccc(C)c(-n2c(Cc3cccs3)n[nH]c2=S)c1 | -0.6 | 108.8 | i | 0.84 | / | / | -6.4
CCOC(=O)COc1ccc(CCNC(C)=O)cc1 | -2.8 | 105.7 | i | 0.89 | -12.1 | 72.6 | -6.7
COCC(=O)Nc1c(C(=O)Nc2ccc3c(c2)OCCO3)oc2ccccc12 | / | 93.7 | i | 0.84 | / | / | 1.8
COC(=O)c1sccc1-n1cccc1C(=O)C(=O)N1CC(C)OC(C)C1 (centres undefined) | -2.1 | 99.6 | i | 0.87 | -328.6 | 40.1 | -1.8
O=C(CCl)N(c1ccccc1)C1CCCCC1 | / | 102.2 | i | 0.96 | i | 1.3 | -3.1
CC(C)(C)n1nnnc1C(c1ccc(Cl)cc1)N(Cc1cccnc1)Cc1ccco1 (centres undefined) | -1.5 | 86.1 | i | 1.1 | -115.4 | 90.8 | 6.2
Cc1nnc(SCC(=O)Nc2ccc(S(=O)(=O)N3CCCCC3)cc2)s1 | -1.3 | 99.9 | i | 0.78 | -15.8 | 32.3 | -7.0
CC(NC(=O)c1cccnc1)C(=O)N1CCCCC1 (centres undefined) | -1.0 | 104.3 | i | 0.98 | / | / | 2.5
